PINK1 modulator = A Quantitative High throughput Screen to Identify Chemical Modulators of PINK1 Expression. PINK1 immunofluorescence, high-content cytometry, 24 h. Potency, µM (series often up to 76.6 µM), for inactives: top-dose activation (PINK1 increase), actives largely listed as activators. 410,000 compounds, 0.2% hits. AID 624263, 2012; active = well fitted activation curve with a large enough effect; inconclusive = small, poorly fitted or top-dose-only effect; inactive = flat fitted curve, though single readings scatter; cell line not stated here;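 further: potency means the concentration at half of the fitted maximal effect; % of control where 0% means no effect; nearly all actives have a fitted effect of over 65% in size; a mitochondrial uncoupler was the plate control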
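Measures PINK1 amount and localization on or inside mitochondria by immunofluorescence. Stable cells get compounds at 5 concentrations for 24 hours before fixation and staining; CCCP controls included.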
TRPML1 inh = qHTS for Inhibitors of the Human Mucolipin Transient Receptor Potential 1 (TRPML1); Mucolipin-1 (Homo sapiens), Q9GZU1; TRPML1-inducible cells, Ca2+ dye fluorescence, FDSS; hits give low values; inhibition of EC80 agonist-evoked calcium signal; 390,000 compounds, 0.02% hits; activity change, negative = inhibition, % (test concentration not listed); in the data active means activity change below about -50%; inconclusive means about -30% to -50%; inactive means above about -30%;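 further: stimulus is agonist 54-4 at its EC80 concentration; on the % scale 0 is the no-effect control and ±100 the full control effect; compound concentration not given in the record; the text of the record puts the active cut at -80%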
Target sequence (Q9GZU1 whole entry, looked up): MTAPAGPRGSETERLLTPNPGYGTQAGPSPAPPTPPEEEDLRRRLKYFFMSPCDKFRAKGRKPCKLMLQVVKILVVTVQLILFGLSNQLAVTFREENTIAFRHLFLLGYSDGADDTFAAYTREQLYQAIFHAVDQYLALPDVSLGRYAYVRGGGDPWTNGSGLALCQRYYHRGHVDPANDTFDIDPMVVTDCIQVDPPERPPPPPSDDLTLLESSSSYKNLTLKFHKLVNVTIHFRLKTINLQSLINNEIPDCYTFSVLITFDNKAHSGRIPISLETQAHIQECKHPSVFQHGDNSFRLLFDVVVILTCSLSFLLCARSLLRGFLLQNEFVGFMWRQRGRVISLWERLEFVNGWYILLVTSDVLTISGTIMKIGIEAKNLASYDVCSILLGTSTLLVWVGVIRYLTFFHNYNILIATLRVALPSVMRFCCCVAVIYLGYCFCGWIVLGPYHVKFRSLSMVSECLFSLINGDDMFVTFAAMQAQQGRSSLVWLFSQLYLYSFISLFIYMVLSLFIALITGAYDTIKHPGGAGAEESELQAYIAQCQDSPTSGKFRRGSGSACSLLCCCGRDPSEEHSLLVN
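Calcium fluorescence in TRPML1-DL cells induced overnight with Tet: a 110 s read after compound pin addition, then a 110 s antagonist read after challenge with 54-4 at 4 uM final (EC80).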
TRPML1 agonist = qHTS for Agonists of the Human Mucolipin Transient Receptor Potential 1 (TRPML1); Mucolipin-1 (Homo sapiens), Q9GZU1; TRPML1-expressing cells, Ca2+ dye fluorescence, FDSS; host cell line not named in the record; reference of the full effect not given here; activation, % (no concentration beside the values); 410,000 compounds, 0.12% hits; in the data active = activation above about 50%; inconclusive = about 30% to 50%; inactive = below about 30%; further: 0% is about no effect; the text of the record puts the active cut at 80%
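Tet-induced TRPML1-DL cells, 1,500 per well, cultured overnight, were loaded with a no-wash Ca2+ dye for 45–90 min. Calcium fluorescence was recorded on the FDSS for 110 s after compound addition, before the EC80 agonist (4 uM 54-4) was added.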
D2 agonist = Beta-Arrestin HTS for Positive Allosteric Modulators of the Human D2 Dopamine Receptor: Agonists; D(2) dopamine receptor (Homo sapiens), P14416; DiscoveRx PathHunter D2 beta-arrestin, luminescence, 90 min; 100% = 57 uM dopamine signal; activation, % (test concentration not listed); 360,000 compounds, 0.084% hits; in the data active = activation above about 40%; inconclusive = about 15% to 40%; inactive = below about 15%; further: compound concentration not given in the record; the text of the record calls up to 30% inactive
Target sequence (P14416 whole entry, looked up): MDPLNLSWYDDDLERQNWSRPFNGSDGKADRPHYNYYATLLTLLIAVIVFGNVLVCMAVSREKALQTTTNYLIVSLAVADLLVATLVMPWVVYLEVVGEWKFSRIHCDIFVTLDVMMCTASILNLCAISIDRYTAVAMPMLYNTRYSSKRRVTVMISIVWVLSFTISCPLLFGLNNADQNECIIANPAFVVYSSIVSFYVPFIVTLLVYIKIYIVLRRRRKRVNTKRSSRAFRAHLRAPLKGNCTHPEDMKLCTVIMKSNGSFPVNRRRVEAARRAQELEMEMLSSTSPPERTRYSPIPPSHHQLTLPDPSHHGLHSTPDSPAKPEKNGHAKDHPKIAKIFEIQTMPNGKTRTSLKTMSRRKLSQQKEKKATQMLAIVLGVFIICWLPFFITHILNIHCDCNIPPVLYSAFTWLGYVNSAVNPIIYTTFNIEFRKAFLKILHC
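DiscoveRx PathHunter D2 beta-arrestin cells (2,100/well) attached overnight, then compound-stimulated 90 min at 37 C in HBSS/10 mM HEPES/0.1% Tween-20 buffer; beta-galactosidase complementation read by luminescence after 1 h at ambient temperature. Dopamine 57 uM final (EC100) as control.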
Six1-Eya2 blk = qHTS Assay for Inhibitors of the Six1/Eya2 Interaction | Homeobox protein SIX1 (Homo sapiens) + Protein phosphatase EYA2 (Homo sapiens), … | AlphaScreen GST-Six1/His-Eya2 binding, biochemical; hits give low values; control for the full effect not named in the record | activity change, % (no concentration beside the values) | 360,000 compounds, 0.56% hits | AID 651725, 2012; in the data active = activity change below about -65%; inconclusive = about -30% to -65%; inactive = above about -30%; further: on the % scale 0 is the no-effect control and ±100 the full control effect
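Homogeneous AlphaScreen proximity assay pairing GST-Six1 with His-tagged Eya2 (added as 5X mix: 250 nM and 500 nM) in 50 mM Tris pH 8.0, 300 mM NaCl, 1 mM TCEP. Glutathione donor and nickel acceptor beads; 1 h, 37 °C, dark.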
CtBP-E1A inh = qHTS Assay for Inhibitors of the CtBP/E1A Interaction; activity change, % (concentration not given with the values); CtBP / adenovirus E1A interaction (AlphaScreen); AID 651724, 2012; 340,000 compounds, 0.49% hits; AlphaScreen GST-E1A/His-CtBP binding, 1536-well; hits give low values; control for the full effect not named in the record; in the data active means activity change below about -65%; inconclusive means about -30% to -65%; inactive means above about -30%; further: on the % scale 0 is the no-effect control and ±100 the full control effect
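Steps: dispense buffer (Tris pH 8.0, NaCl 300 mM, TCEP 1 mM, BSA, Tween 20); add 5X protein mix (GST-E1A, His-CtBP, 125 nM each); pin 23 nL compound; 2 h at 37 °C, dark; add 5X beads (50 ug/mL); 1 h; read.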
Numbers without * were called inactive; ? = inconclusive; . = no result given; [ ] = dose if it differs, or a comment.

The first 2 records, ahead of the listing:
Results follow in this order: PINK1 modulator	TRPML1 inh	TRPML1 agonist	D2 agonist	Six1-Eya2 blk	CtBP-E1A inh
> Cc1cc(C)cc(N2C(=O)CC(Sc3nnnn3-c3ccccc3)C2=O)c1 (centres undefined)
  0.7%[38.3 µM]	-9	-0.4	-2.3	-7	-13
> COCCSc1nc(N)c(NC(=O)c2ccco2)c(=O)[nH]1
  0.8%	-6	0.2	-1.6	8	-12

The list itself, from the start:
Results follow in this order: PINK1 modulator	TRPML1 inh	TRPML1 agonist	D2 agonist	Six1-Eya2 blk	CtBP-E1A inh
> Cc1cc(C)cc(N2C(=O)CC(Sc3nnnn3-c3ccccc3)C2=O)c1 (centres undefined)
  0.7%[38.3 µM]	-9	-0.4	-2.3	-7	-13
> COCCSc1nc(N)c(NC(=O)c2ccco2)c(=O)[nH]1
  0.8%	-6	0.2	-1.6	8	-12
> COc1ccccc1NC(=O)CCn1c(=O)sc2ccccc21
  .	-12	-0.5	-1.0	7	6
> CCN(CC(=O)NCc1ccc(Cl)cc1)C(=O)CCC(=O)c1ccc(C)cc1
  4.0%	-8	-0.6	-8.4	-9	-5
> CC(C)c1ccc(NC(=O)c2cccn2-c2nnc(N3CCCCC3)s2)cc1
  2.5%	-20	2.0	.	.	.
> CC(C)Cn1cc(C(=O)NCCCN2CCC(C)CC2)c2c3ccccc3n(C)c2c1=O
  -0.7%	-15	0.0	-3.5	-6	4
> COCCN(C(=O)CSc1n[nH]c(-c2ccccc2)n1)c1c(N)n(CC(C)C)c(=O)[nH]c1=O
  -0.6%	-5	1.2	-2.1	6	-25
> CC(C)=N/N=C1\NC(=O)C(C)S1 (centres undefined)
  0.4%	-11	-0.5	-5.6	-7	.
> CCOc1cc(CN2CCC(n3nccc3NC(=O)C3CC3)CC2)ccc1O
  0.3%	0	0.5	-1.5	7	.
> Cc1ccc2nc(NCc3ccco3)c(C=NCc3ccco3)c(=O)n2c1
  0.7%[38.3 µM]	22	2.0	1.3	1	-13
> Cc1ccc(C(=O)c2cccc(N)c2)cc1C
  5.6%	14	1.0	-1.0	-1	.
> CCN(CC)S(=O)(=O)c1ccc(/C=C/C(=O)Nc2ccc(F)cc2F)cc1
  21%	9	0.1	-4.6	12	.
> Cc1[nH]c2ccccc2c1C(=O)CN1CCN(C/C=C/c2ccccc2)CC1
  0.8%	-12	-0.5	-6.0	-7	-4
> Cc1ccc(CNC(=O)CCS(=O)(=O)Cc2ccc(C)cc2)cc1
  2.5%	-11	1.0	-5.3	4	2
> CCOC(=O)N1CCN(S(=O)(=O)c2cc(Cl)ccc2Cl)CC1
  1.1%	-19	0.9	-3.2	5	2
> Cc1cccc(C)c1NC(=O)CN(C)CC(=O)Nc1ccccc1Oc1ccccc1
  3.3%	-26	1.6	-2.4	2	10
> Cc1ccc(CNC(=O)C2CCCN(S(=O)(=O)c3c(C)n[nH]c3C)C2)cc1 (centres undefined)
  -0.6%[38.3 µM]	-10	-0.5	-0.4	16	39
> O=C(O)CC1(CC(=O)Nc2ccccc2Br)CCCC1
  -0.2%	7	2.3	1.4	4	-1
> CN(CCC1CCOCC1)Cc1cn[nH]c1-c1ccc(-c2ccccc2)cc1
  -0.1%	-6	-0.3	-0.3	1	-3
> CCC(=O)N1CCc2cc(OC)c(OC)cc2C1COc1ccc(OC)cc1 (centres undefined)
  3.0%	-1	-1.4	-4.5	0	-4
> COc1ccc(OCC(=O)N2N=C(C)CC2(O)C(F)(F)F)cc1 (centres undefined)
  -1.1%	5	-0.6	-4.2	-4	4
> COc1ccccc1NC(=O)c1sc2nc3c(c(C(F)(F)F)c2c1N)CN(C(C)=O)CC3
  1.8%	13	2.0	.	.	.
> CCN(CC)CCNC(=O)c1cc2c(=O)n(C)c3cc(Cl)ccc3c2s1
  -3.5%	0	0.0	.	.	.
> CC1CC1C(=O)N1CCN(S(=O)(=O)c2cc(C(F)(F)F)cc(C(F)(F)F)c2)CC1 (centres undefined)
  ?	16	0.4	-4.1	8	3
> COc1ccc2nc(N(CCN(C)C)C(=O)c3ccc4c(c3)OCCO4)sc2c1
  -0.9%	-9	0.0	3.1	-13	-20
> COc1ccccc1NC(=O)C1=C(C)NC2=C(C(=O)CC(c3ccc(OC)c(OC)c3)C2)C1c1coc2ccccc2c1=O (centres undefined)
  8.7%	8	1.7	1.7	-78*	-20
> Cc1ccc(-c2nc3sc4c(c3c(=O)n2N)CC(C)(C)OC4)cc1
  -0.4%	2	0.2	-2.7	2	7
> Cc1ccc(NC(=O)/C=C/c2cccs2)c([N+](=O)[O-])c1
  4.7%	-7	0.2	-2.4	-9	0
> CCc1cccc(CN2CCC(CNC(=O)Nc3ccc(Cl)cc3)CC2)c1
  0.7%	-1	-0.5	-3.9	1	.
> O=C(NC(=S)Nc1ncc(Br)cc1Br)c1ccccc1
  2.0%	15	0.0	-2.3	-2	-3
> COc1ccc(N2CCN(C(CNS(=O)(=O)c3ccccc3)c3ccccc3)CC2)cc1 (centres undefined)
  -0.6%	-9	-0.8	-2.7	-23	?
> Cn1c(=O)c(C(=O)NCc2ccccc2)c(O)c2ccccc21
  1.5%	-3	0.5	-4.3	8	-2
> CCOC(=O)CNC(=S)N(Cc1ccccc1)Cc1cccs1
  -1.0%	-20	0.9	-4.3	1	-14
> CC1(c2nnc(Cc3ccccc3)o2)CC(c2ccc(C#N)cc2)=NO1 (centres undefined)
  0.2%	-1	-0.1	3.0	17	-14
> Cc1cccc(NC(=O)CSc2nc3[nH]c(=O)cc(O)c3s2)c1
  0.5%	1	0.1	-4.2	-15	-24
> CCS(=O)(=O)C1=NSC2=NC(=O)/C(=C\c3ccc(OC(=O)c4ccco4)cc3)C(=N)N21
  1.0%	2	-1.0	-3.5	-10	0
> Cc1occc1C(=O)Nc1ccccc1C#N
  -0.8%	-3	0.0	-3.6	1	-1
> CC(CCc1ccccc1)NC(=O)COC(=O)c1ccccc1O (centres undefined)
  3.0%	13	0.4	0.6	-6	9
> O=C(Nc1ccccc1)OCc1cn(-c2ccc(Cl)cc2)nn1
  5.7%	-17	0.2	0.3	2	1
> CCOc1ccccc1NC(=O)Cn1nnc2sc3c(c2c1=O)CCC(C(C)(C)C)C3 (centres undefined)
  1.9%	9	1.5	.	.	.
> Cc1ccc(-n2ccnc2SCC(=O)c2c(N)n(C3CC3)c(=O)[nH]c2=O)cc1C
  -0.2%	4	-0.7	-2.0	-2	.
> CCCCC[C@H](C)N1C[C@@H](COCc2ccccc2)Oc2cc(N3CCC[C@H]3C(N)=O)ccc2S1(=O)=O
  0.5%	.	0.0	.	8	-12
> CCc1nc2c(OCC(=O)N(C)C)cccn2c1N(C=O)Cc1ccc(OC)cc1
  -0.4%	.	-0.1	-1.3	7	-1
> O=[N+]([O-])c1ccc(N2CCCC2)c([N+](=O)[O-])c1
  -0.8%	-1	-0.5	-1.7	-17	10
> Cc1cc(C(=O)Nc2ccc(C(C)C)cc2)c2c(C)nn(-c3ccccc3)c2n1
  0.9%	-7	1.5	.	.	.
> Cc1nn(-c2ccccc2)c(OC(=O)c2ccc(Cl)cc2)c1S(=O)(=O)c1ccccc1
  4.7%	3	-0.8	.	.	.
> COc1ccc2[nH]c3c(c2c1)CCN1C(=O)C(CC(=O)NCc2cccc(C(F)(F)F)c2)C[C@H](C(=O)N(C(C)C)C(C)C)[C@@]31C (some centres undefined)
  ?	35	-0.3	-1.4	-4	-2
> CC(=O)c1ccc(OCc2c(-c3ccccc3)nnn2CC(=O)NS(=O)(=O)c2ccc(C)cc2)cc1
  0.7%	.	-0.9	-2.7	-6	-4
> CC(=O)N(Cc1ccc(Br)cc1)c1cccc(C)c1C
  2.7%	44	2.4	-4.3	1	-4
> CCn1c(NC(=O)c2nn(C)cc2Br)nc2ccccc21
  2.3%	22	0.8	-4.3	-8	-9
> O=C(CN1CCN(c2ccc(O)cc2)CC1)Nc1cc(S(=O)(=O)N2CCCCC2)ccc1Cl
  -0.3%	-12	-0.1	13	-11	0
> Cc1cccc(NC(=S)N2CCn3cccc3C2c2cccnc2)c1 (centres undefined)
  -1.0%	45	0.0	0.4	-6	-7
> Cc1cccc2c1Sc1ccc(Cl)cc1CC2N1CCNCC1 (centres undefined)
  -0.6%	-22	0.6	1.0	0	17
> CCOC(=O)c1nnc(-c2ccccc2)nc1Oc1ccccc1Cl
  0.2%	9	0.0	-9.2	-9	-2
> CCN(CC)c1ccc(/C=N/Nc2nc(C)cc(C)n2)c(O)c1
  4.1%	-5	4.0	-7.5	?	?
> NC(=O)c1cc[n+](CC(=O)NC(=O)Nc2ccccc2)cc1
  0.1%	-13	-0.6	5.0	4	9
> Cc1ccc(C(c2c(C)n(C)n(-c3ccccc3)c2=O)c2c(C)n(C)n(-c3ccccc3)c2=O)s1
  17%	12	-0.4	-5.4	-6	-3
> CCC(C(=O)O)N1C(=O)/C(=C/c2cccn2C)SC1=S (centres undefined)
  0.9%	32	2.0	-4.4	2	-10
> CCc1ccccc1NC(=O)c1cnc2n(c1=O)CCS2
  1.7%	-6	-0.6	-5.3	4	1
> COc1ccccc1NS(=O)(=O)c1cccc(C(=O)NN)c1
  -3.5%[38.3 µM]	-7	-0.4	1.8	4	-12

Further entries:
Results follow in this order: PINK1 modulator	TRPML1 inh	TRPML1 agonist	D2 agonist	Six1-Eya2 blk	CtBP-E1A inh
> CCC(C(=O)OC)n1cnc2c(nnn2-c2cccc(OC)c2)c1=O (centres undefined)
  1.1%	1	-0.5	-4.3	-5	.
> O=C(NC(O)C(=O)c1ccccc1)c1ccccn1 (centres undefined)
  3.3%	3	-0.4	-2.9	0	11
> CN(C)c1ccc(C2C3CCCc4ccccc4C3=NN2C)cc1 (centres undefined)
  2.0%	-12	2.7	-1.7	-14	-12
> COc1cc(NC(=O)NCCn2nnc3cc(S(=O)(=O)N(C)C)ccc32)cc(OC)c1
  -0.8%	0	-1.3	.	.	.
> O=C1C(c2ccccc2)=NCCN1C(c1ccc(F)cc1)c1nc2ccccc2[nH]1 (centres undefined)
  0.0%	.	-0.8	-2.6	-2	-5
> COc1ccccc1NC(=O)C1=C(C)Nc2ncnn2C1c1ccc(C)o1 (centres undefined)
  1.9%	-7	-1.6	1.2	-2	-2
> O=C(CN1CCN(S(=O)(=O)c2ccccc2)CC1)Nc1ccccc1Cl
  0.6%	27	1.6	1.4	6	-6
> CCn1c(C)nnc1SCC(=O)Nc1nccs1
  0.7%	11	0.3	-2.9	5	1
> Cn1cc(S(=O)(=O)N2CCc3ccccc32)cc1C(=O)Nc1ccc(C(F)(F)F)cc1
  0.4%	5	-0.5	.	.	.

Source: PubChem BioAssay
